VACV mCherry inh: qHTS for Stage-Specific Inhibitors of Vaccinia Orthopoxvirus: mCherry Reporter Primary qHTS; Potency, µM (doses to about 36.5 µM), inactives show top-dose activity change, negative = inhibition, usual class: inhibitors; 310,000 tested, 0.63% active; Vaccinia virus mCherry reporter infection, fluorescence; about a quarter of the inactives have no number; active = well fitted inhibition curve with a large enough effect; inconclusive = small, poorly fitted or top-dose-only effect; inactive = no such curve, though single readings can be large or run the other way; tested in A549 cells; also: nearly all actives have a fitted effect of over 35% in size; inactives centre near -10
VACV Venus inh: qHTS for Stage-Specific Inhibitors of Vaccinia Orthopoxvirus: Venus Reporter Primary qHTS | Vaccinia virus Venus reporter expression, fluorescence | Potency, µM (titrated, usually from 36.5 µM), inactives show at the top dose activity change, negative = inhibition, usual class: inhibitors | 330,000 tested, 0.46% active; active means well fitted inhibition curve with a large enough effect; inconclusive means small, poorly fitted or top-dose-only effect; inactive means no such curve, though single readings can be large or run the other way; tested in A549 cells; also: nearly all actives have a fitted effect of over 30% in size; inactives centre near -10
Starred values were filed as active, the others as inactive; i = inactive; u = inconclusive; x = not tested or not shown; [ ] = remark or other dose. % is scaled to controls: 0 for no effect and ±100 for the full control effect; potency is read from the fitted curve at half-maximal effect.

Below each SMILES: VACV mCherry inh | VACV Venus inh
NC(=S)N/N=C/c1ccccc1OCc1cccc(Cl)c1
→ 1.78µM* | 2µM*
Cc1ccc(NC(=S)N(Cc2cccs2)Cc2cc3cccc(C)c3[nH]c2=O)cc1
→ -11.3% | -10.4%
CS(=O)(=O)Nc1ccccc1C(=O)NCc1ccccc1Cl
→ i | -0.4%
O=C(c1cccc(F)c1)N1CCN(c2ccc([N+](=O)[O-])c3cccnc23)CC1
→ i | -11.4%
O=C(Nc1ccc(NC(=O)c2cccnc2Cl)cc1)c1cccc(Cl)c1
→ -12.7% | -29.2%
Cc1ccc(S(=O)(=O)N(C)CCCC(=O)Nc2ccncc2)cc1
→ -11.3% | -24.5%
O=C(c1cc(COc2c(F)cccc2F)on1)N1CCN(C2CCCCC2)C(=O)C1
→ -24.8% | -14.6%
CC1CCCN(S(=O)(=O)c2cc3c4c(c2)CC(=O)N4CCC3)C1 (configuration not stated)
→ -10.4% | -17.2%
CCOC(=O)c1[nH]c(C)c(C(=O)NC(CC)Cc2ccccc2)c1C (configuration not stated)
→ -25.3% | -23.9%
Cc1c2cnn(CC(=O)NCCCN3CCCCC3C)c(=O)c2c(C)n1Cc1ccccc1 (configuration not stated)
→ -27.3% | -5.0%
CN(CC(=O)NCc1cccs1)CC(=O)Nc1ccc(F)c(F)c1F
→ -5.6% | -8.0%
O=S1(=O)N=C(N/N=C/c2ccco2)c2ccccc21
→ i | -8.5%
CC(C)c1ccc(NC(c2nnc(-c3ccccc3)o2)c2ccc(F)cc2Cl)cc1 (configuration not stated)
→ -8.8% | -14.2%
NS(=O)(=O)c1cccc(NC(=S)NC(=O)c2cccc([N+](=O)[O-])c2)c1
→ 3.0% | -7.5%
CCc1noc(C)c1C(=O)Nc1nc(-c2cccs2)cs1
→ i | -7.3%
O=C1C(=O)c2c(ccc3ccccc23)-c2ccccc21
→ u | u
O=C(N/N=C/c1cccs1)c1ccc(-n2cccc2)cc1
→ i | -14.7%
Cc1ccc(NC(=O)c2cnn3c2NC(c2ccccc2)=CC3c2ccccc2)cc1 (configuration not stated)
→ -21.3% | -10.1%
Cc1ccc(OCC(=O)Nc2c(C(=O)c3ccc(Cl)cc3)oc3ccccc23)cc1C
→ -10.7% | -4.6%
CCCCn1c(N)c(N(CC(C)C)C(=O)c2ccc(-c3ccc([N+](=O)[O-])cc3)o2)c(=O)[nH]c1=O
→ -12.3% | -4.1%
COc1ccc(CC2(C)OC(c3ccc(C)c([N+](=O)[O-])c3)=NN2C(C)=O)cc1 (configuration not stated)
→ -21.6% | -15.7%
CCCCN(C)CCNC(=O)Cn1ncc2c3ccccc3n(CCC)c2c1=O
→ -9.3% | -15.3%
COc1ccc(CNC(=O)CN2C(=O)CCCc3ccccc32)cc1
→ i | -9.9%
O=C(c1ccc2c(c1)OCCO2)N(Cc1cccnc1)c1nc2c(F)cc(F)cc2s1
→ -10.6%[7.34 µM] | -9.2%[7.34 µM]
CCOC(=O)c1ccccc1N1C(=O)C2Sc3[nH]c(=O)sc3C(/C=C/c3ccccc3)C2C1=O (configuration not stated)
→ -11.1% | 17.4%
O=C(O)C1CCCN(C(=O)c2cccc3ccccc23)C1 (configuration not stated)
→ -10.8% | 1.3%
CC1CC1C(=O)OCC(=O)Nc1cccc([N+](=O)[O-])c1 (configuration not stated)
→ -0.4% | -4.4%
CC1CCCC(=O)CCC/C=C/c2cc(O)cc(O)c2C(=O)O1 (configuration not stated)
→ -16.2% | -17.0%
CCC(c1ccc(O)c(O)c1)C(CC)c1ccc(O)c(O)c1 (configuration not stated)
→ 3.16µM* | -14.8%
COc1ccc(CCNC(=O)Cc2cc(OC)c(OC)cc2Br)cc1OC
→ -12.9% | 2.6%

Full records, quoted from the list. Values in the order: VACV mCherry inh | VACV Venus inh
Results for O=C(c1ccc2c(c1)OCCO2)N(Cc1cccnc1)c1nc2c(F)cc(F)cc2s1 → -10.6%[7.34 µM] | -9.2%[7.34 µM]
Results for CCOC(=O)c1[nH]c(C)c(C(=O)NC(CC)Cc2ccccc2)c1C (configuration not stated) → -25.3% | -23.9%
Results for CCOC(=O)c1ccccc1N1C(=O)C2Sc3[nH]c(=O)sc3C(/C=C/c3ccccc3)C2C1=O (configuration not stated) → -11.1% | 17.4%
Results for COc1ccc(CC2(C)OC(c3ccc(C)c([N+](=O)[O-])c3)=NN2C(C)=O)cc1 (configuration not stated) → -21.6% | -15.7%
Results for Cc1ccc(OCC(=O)Nc2c(C(=O)c3ccc(Cl)cc3)oc3ccccc23)cc1C → -10.7% | -4.6%

Continued:
Below each SMILES: VACV mCherry inh | VACV Venus inh
CCOC(=O)C1CCN(C(=O)C2CCN(S(=O)(=O)c3ccc4c(c3)CC(C)N4C(C)=O)CC2)CC1 (configuration not stated)
→ -14.0% | -10.5%
Cn1c(N)cc(=O)n(Cc2ccccc2)c1=O
→ -15.6% | -4.6%
Cc1cc(C(=O)N2CCC2(C)C(=O)NCCC#N)nn1C (configuration not stated)
→ 0.1% | -12.3%
CCCn1c(SCC(=O)Nc2cc(S(=O)(=O)N3CCOCC3)ccc2OC)n[nH]c1=O
→ -13.9% | 2.6%
O=C(CNC(=O)c1ccc(-c2ccccc2)cc1)Nc1cccc(CO)c1
→ -12.5% | 10.2%
O=C1C2C3c4ccccc4C(c4ccccc43)C2C(=O)N1Cc1ccco1 (configuration not stated)
→ x | -24.1%
COCc1cc(=O)[nH]c(/N=C(\N)Nc2ccc(Oc3ccccc3)cc2)n1
→ i | -12.1%
Cc1ccc(C)n1-c1nccc(-c2ccco2)n1
→ i | -13.2%
Cc1noc(C)c1COc1ccc(C(=O)OCC(=O)Nc2c(C)n(C)n(-c3ccccc3)c2=O)cc1
→ -15.3% | -5.8%
Cc1cccc(Cn2nnc3c(=O)[nH]c(C4CCCN(C(=O)c5ccccc5Cl)C4)nc32)c1 (configuration not stated)
→ -4.4% | -8.5%
O=C1CNC(=O)/C1=C\N1CCCCC1
→ -19.0% | 3.5%
CCOC(=O)c1cc(C)nnc1C(=O)OCC
→ i | -11.1%
Clc1ccc(-c2noc(-c3cccnc3N3CCN(c4ccccc4)CC3)n2)cc1
→ -5.1% | 2.4%
CCCCCCCC[n+]1cccc(C(=O)N2c3c(nc(N)[nH]c3=O)NC(C)C2C)c1 (configuration not stated)
→ -12.3% | -12.4%
CCOC(=O)CC(=O)CSc1ncnc2c1nnn2-c1ccc(F)cc1
→ 8.8% | 7.1%
CCN1CCCC1CNC(=O)c1cc(S(=O)(=O)N(C)C)ccc1Cl (configuration not stated)
→ i | 0.0%
O=C(NCc1ccncc1)C(=O)NCc1ccco1
→ -25.9% | -0.3%
NC(=O)[C@@H]1CCCN1Cc1nc(-c2cccs2)no1
→ -20.7% | -10.8%
CC(=O)N(CCc1ccccc1C)Cc1cc2ccc(C)cc2[nH]c1=O
→ -21.5% | -20.3%
CN(CCOc1ccccc1)c1ccc(S(=O)(=O)N2CCCCC2)cn1
→ i | 0.0%
COc1ccc(NC(=O)Cn2ccn(Cc3ccccc3)c(=O)c2=O)cc1Cl
→ -4.8% | -15.5%
CCCn1c(O)c(N=NC(=O)CNC(=O)c2cccnc2)c2ccccc21
→ -25.9% | -17.6%
CC(=O)Nc1ccc(S(=O)(=O)N2CCN(C(=O)C3COc4ccccc4O3)CC2)cc1 (configuration not stated)
→ -11.3% | -2.0%
CC(C)(CNC(=O)c1cnn(-c2ncc3c(n2)-c2ccccc2CC3)c1C1CC1)N1CCOCC1
→ i | -10.1%
COCCNC(=S)N1CCCC(CO)C1 (configuration not stated)
→ i | -7.6%
C[C@@H](C(=O)Nc1nc(-c2ccccn2)cs1)N1C(=O)C2CCCCC2C1=O (some centres not stated)
→ x | 2.2%
COc1ccc(NC(=O)c2cc(-c3cc(F)ccc3OC)n[nH]2)c(OC)c1
→ 43.5%[activator] | -1.9%
Cc1nn(-c2ccccc2)c(N)c1C(c1ccccc1)c1c(C)nn(-c2ccccc2)c1N
→ -0.7% | -8.1%
O=S(=O)(c1c(F)cccc1F)N1CCCC2CCCCC21 (configuration not stated)
→ i | -6.7%
CCC(=O)NC(=S)Nc1ccc(NC(=O)c2ccccc2[N+](=O)[O-])cc1
→ -3.3% | -10.5%

Quoted at random: 2 compounds from above, in no set order.
Below each SMILES: VACV mCherry inh | VACV Venus inh
CCOC(=O)CC(=O)CSc1ncnc2c1nnn2-c1ccc(F)cc1
→ 8.8% | 7.1%
COCCNC(=S)N1CCCC(CO)C1 (configuration not stated)
→ i | -7.6%

Carrying on.
Below each SMILES: VACV mCherry inh | VACV Venus inh
Cc1cccc(NC(=O)c2ccc(-n3cnc4cccnc43)cc2)c1C
→ -6.4% | -1.3%
Cn1ccn(CCCCCCn2ccn(C)c2=S)c1=S
→ -0.4% | 1.3%
O=C(Nc1ccc2c(c1)OCO2)[C@@H]1CCCN1S(=O)(=O)c1cccc2cccnc12
→ -9.2% | -9.3%
CC(C)C1Oc2ccccc2N(CC(=O)NC2CCCCC2)C1=O (configuration not stated)
→ -22.3% | -7.9%
COc1ccc(C(=O)NC(=S)Nc2ccc(N3CCOCC3)cc2)cc1Cl
→ u | -7.3%
CCn1cc(C(=O)O)c(=O)c2cc(F)c(N3CCN(S(=O)(=O)c4ccc(NC(C)=O)cc4)CC3)cc21
→ -13.1% | -1.8%
CC(=O)N(Cc1cccnc1)c1cccc(-c2nc3ccccc3s2)c1
→ -6.2% | -24.9%
O=C(O)COc1ccc(Br)cc1CP(=O)(c1ccccc1)c1ccccc1
→ -9.6% | -6.5%
COc1ccc(-c2ccc(=O)n(CC(=O)Nc3cc(OC)ccc3OC)n2)cc1
→ -14.9% | -7.1%
CSc1ccc(NC(=O)/C=C/C(=O)O)cc1
→ -5.9% | -4.2%
CCCN(CCC)C(=O)Cn1c(=O)n(-c2ccc(CC)cc2)c(=O)c2c3c(sc21)CCC3
→ -11.9% | -12.1%
O=C(NCCN1CCOCC1)c1cc(-c2ccc(F)cc2)on1
→ -20.8% | -18.4%
Cc1ccc(-c2cc(-c3ccccc3)cc(-c3ccccc3)[n+]2-c2ccc(C(=O)O)cc2)cc1
→ -9.0% | -16.7%
Nc1ncnc2c1ccn2[C@@H]1O[C@H](CO)[C@@H](O)[C@H]1O
→ 1.41µM* | 1.78µM*
Cc1nn(-c2ccccc2)c(N2CCCC2)c1/C=N/NC(=O)c1cc(-c2cccs2)nc2ccccc12
→ -1.2% | -11.1%
CC(C)[C@H](NC(=O)c1ccc(Cl)c([N+](=O)[O-])c1)C(=O)NCc1ccc(Cl)cc1Cl
→ -14.3% | -11.8%
CCOC(=O)C1=C(N)OC2=C(C(=O)CC(C)(C)C2)C1C1CCCCC1 (configuration not stated)
→ x | -8.2%
CN1CCN(S(=O)(=O)c2ccc(NC(=S)NC(=O)c3ccc(Cl)cc3)cc2)CC1
→ -22.1% | -11.9%
Cc1ccc(Cl)cc1N1CCN(C(=O)C2(S(=O)(=O)c3ccc(Cl)cc3)CC2)CC1
→ -26.5% | -29.3%
CCc1ccc(C(=O)NC2=NC(c3ccccc3F)CC(=O)N2)cc1 (configuration not stated)
→ -3.2% | 2.3%
O=C(c1ccc2c(=O)n(Cc3ccc4c(c3)OCO4)c(=S)[nH]c2c1)N1CCC2(CC1)OCCO2
→ -8.6% | -13.0%
c1coc(CNc2nc(-c3cccs3)cs2)c1
→ -7.2% | 4.9%
Cn1c2ccccc2c2cc(/C=C(\NC(=O)c3ccccc3)C(=O)O)ccc21
→ 2.4% | -2.9%
O=C(CCn1c(=S)[nH]c2ccccc2c1=O)NCCc1ccccc1
→ i | -1.3%
COCCn1c(C)cc(C(=O)COC(=O)c2ccc([N+](=O)[O-])o2)c1C
→ -6.3% | -10.3%
COc1ccc(CC(CC(=O)O)C(=O)NCc2ccccc2)cc1 (configuration not stated)
→ i | -7.3%
COc1ccc(Cl)cc1S(=O)(=O)Nc1cccc(-c2ccc(N3CCOCC3)nn2)c1
→ -14.8% | -25.5%
Oc1c(C(Nc2ccccn2)c2ccccc2)ccc2cccnc12 (configuration not stated)
→ 11.2µM* | u
CCOc1ccc(C(C)=O)cc1COC(=O)CNC(=O)c1cccs1
→ i | -12.7%
CN(C)c1ccc(/C=C/c2ccnc3ccccc23)cc1[N+](=O)[O-]
→ i | -10.1%
COc1ccccc1-c1nnc2sc(C3CCCCC3)nn12
→ -2.3% | -13.8%
CCOc1ccc(NC(=O)C(NC(=O)C2CCC(C)CC2)C(C)C)cc1 (configuration not stated)
→ -7.5% | -7.3%
CCOc1ccccc1Nc1nnc(SC(C)C(=O)Nc2nc(-c3ccccc3)cs2)s1 (configuration not stated)
→ -17.5% | 7.8%
Cc1cc(C)c(NC(=O)c2nc3ccccc3nc2N2CCCCC2)c(C)c1
→ -4.3% | 5.9%
CCOC(=O)N1CCC(NC(=O)c2cnn3c(C(F)(F)F)cc(-c4cccc(OC)c4)nc23)CC1
→ -13.2% | -12.3%
O=C(NCc1ccccc1)C1=C[C@H](c2csc3ccccc23)C[C@H](OCc2ccc(CO)cc2)O1
→ -23.6% | u
O=C(Cn1ncn2c(cc3cc(F)ccc32)c1=O)NC1CCCCC1
→ -4.2% | -5.7%
O=C(O)C1CCC(N2C(=O)C3C4CCC(C4)C3C2=O)CC1 (configuration not stated)
→ i | -2.2%
CCOC(=O)C1CCN(C(=O)C2(NC(=O)Nc3ccccc3C)CCCCC2)CC1
→ u | -20.9%
